FGF22 binding: shifts melting point of recombinant human FGF22. Q9HCT0. recombinant FGF22 thermal shift, SYPRO orange fluorescence; percent of sucrose octasulfate shift, DMSO zero. calls only at 9.99 µM. 340,000 compounds, 1.5% hits. AID 651658;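 active means melting point raised past a set limit in the mean and every replicate; inconclusive means no clear call; three in four hits are not shown here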
Target sequence (Q9HCT0 whole entry, looked up): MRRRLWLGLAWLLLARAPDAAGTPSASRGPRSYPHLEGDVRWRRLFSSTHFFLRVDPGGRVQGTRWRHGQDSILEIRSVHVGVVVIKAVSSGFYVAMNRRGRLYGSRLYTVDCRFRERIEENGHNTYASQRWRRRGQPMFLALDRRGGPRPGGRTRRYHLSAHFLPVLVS
MLL AF4-AF9 inh: MLL-AF4/AF9 protein interaction inhibition; AlphaScreen, biotin-AF4 peptide binding to FLAG-AF9; inhibition, % at 10 µM; 350,000 compounds, 0.47% hits; AID 651704;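 active means every replicate reaching a set inhibition limit, whatever the replicate mean, cut at about 25% in these data; inconclusive means mean inhibition reaches that limit but some replicates miss it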;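 further: 0% = plate neutral control median and 100% = total signal loss; the record names both 10 and 1 µM as test concentration; the first replicate is given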
Target sequence (P42568 whole entry, looked up): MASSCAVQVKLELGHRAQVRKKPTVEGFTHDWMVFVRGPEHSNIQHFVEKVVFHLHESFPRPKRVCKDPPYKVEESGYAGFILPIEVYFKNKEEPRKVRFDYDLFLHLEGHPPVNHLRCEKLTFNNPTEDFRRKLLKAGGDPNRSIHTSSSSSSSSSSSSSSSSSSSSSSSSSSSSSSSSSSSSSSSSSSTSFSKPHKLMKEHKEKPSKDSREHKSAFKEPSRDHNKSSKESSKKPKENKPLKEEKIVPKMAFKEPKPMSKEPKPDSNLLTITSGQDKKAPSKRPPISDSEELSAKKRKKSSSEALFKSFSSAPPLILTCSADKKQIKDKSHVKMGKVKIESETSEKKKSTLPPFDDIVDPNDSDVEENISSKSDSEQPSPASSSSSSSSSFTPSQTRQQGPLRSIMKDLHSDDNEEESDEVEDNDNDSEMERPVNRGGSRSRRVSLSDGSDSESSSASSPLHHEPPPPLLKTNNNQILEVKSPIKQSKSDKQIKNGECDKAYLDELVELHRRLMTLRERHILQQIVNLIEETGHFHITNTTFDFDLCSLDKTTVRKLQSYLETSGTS
ALR inh: human ALR oxidase inhibition via reduced H2O2; P55789; purified ALR, DTT oxidation, H2O2 HRP-luminol luminescence; inhibition, % (concentration not given with the values); 290,000 compounds, 3.8% hits; AID 485317;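 active means mean and each replicate at 75% or more; inconclusive means only one of the two met; inactive means neither met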;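 further: stock transfer was 7.5 nL into about 7.5 µL; 0% = neutral wells and 100% = wells with inactivated enzyme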
Target sequence (P55789 whole entry, looked up): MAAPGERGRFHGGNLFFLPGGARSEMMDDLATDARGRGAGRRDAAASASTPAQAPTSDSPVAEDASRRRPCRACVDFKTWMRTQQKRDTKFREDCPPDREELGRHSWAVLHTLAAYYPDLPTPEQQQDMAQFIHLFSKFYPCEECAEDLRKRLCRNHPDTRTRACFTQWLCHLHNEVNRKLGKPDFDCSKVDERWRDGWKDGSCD
RanGTP-Imp inh: disruptors of Ran-importin-beta complex formation – biochemical, FRET, CFP-Ran, YFP-importin-beta, homogeneous, primary screen; cell-free CFP-Ran/YFP-importin-beta FRET ratio; inhibition, % (no concentration beside the values); 300,000 compounds, 1.1% hits; AID 2216;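 active means most replicates above 15%; inconclusive means exactly half above 15%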;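 further: 0% = DMSO wells and 100% = Ran loaded with GDP instead of GTP; wells of about 40 µL received 100 nL stock; the first replicate is given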
Beta apoptosis: beta cell apoptosis inhibition; 300,000 compounds, 0.8% hits; AID 435005; INS-1E cytokine-induced death, ATP luminescence, 48 h; percent of positive-control rescue, neutral wells zero; protection from apoptosis, % (concentration not given with the values);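 active means all replicates at 75% or more, or half of them and the mean; inconclusive means half reach 75% but not the mean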;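 further: 0% = cytokine-treated negative control wells and 100% = positive control rescue; higher means more ATP so stronger rescue from cytokine killing; wells of about 40 µL received 100 nL stock; the first replicate is given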
rRNA inh HTS: selective bacterial rRNA inhibition in E. coli; E. coli WT GFP vs humanized-ribosome RFP mutants, fluorescence, 24 h; active compounds read low; DMSO median 0, no signal -100; GFP signal change (wild-type ribosome), % (no concentration beside the values); 350,000 compounds, 1.6% hits; AID 720706;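 active means significant combined selectivity score with lowered wild-type GFP, culture density cut under 30%, mutant RFP and density less affected; inactive means any of these conditions unmet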; further: one replicate is shown; some compounds called inactive have numbers as strong as hits
T cruzi inh: T. cruzi replication inhibition. inhibition, % (no concentration beside the values). T. cruzi beta-gal in NIH3T3, luminescence, 90 h. 300,000 compounds, 1.4% hits. AID 1885;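 active means mean inhibition across valid replicates above about 55%, limit read from the data; inconclusive means mean below that limit but half or more replicates reach it; inactive means mean below it, under half of replicates reach it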;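 further: signal also drops with host cell toxicity which is not excluded here; 0% = plate median of DMSO wells and 100% = zero luminescence signal; higher percent means less beta-gal luminescence so fewer parasites; stock transfer was 50 nL into about 50 µL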
Calb FLC: affects C. albicans growth with fluconazole | C. albicans CaCi-2 (fluconazole-resistant clinical isolate) + fluconazole, Alamar Blue growth, 48 h | growth inhibition, % (test concentration not listed) | 300,000 compounds, 0.57% hits;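 active means most replicates above 75%; inconclusive means exactly half above 75%; inactive means most below 75%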;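 further: all wells also contain fluconazole at 8 µg/ml as a sub-toxic cotreatment; 0% = median of DMSO wells and 100% = median of geldanamycin control wells; wells of about 8 µL received 7.5 nL stock; the first replicate is given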
rRNA inh HTS OD600: further read-out of rRNA inh HTS, marked with its call; OD600 change, %; measured here: OD600 growth;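 optical density of the mix in the first replicate; 0 = DMSO median and -100 = no signal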
rRNA inh HTS RFP: second read-out of rRNA inh HTS, no call of its own (marks repeat the call); RFP signal change, %; measured here: RFP humanized mutant strains;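 first replicate; 0 = DMSO median and -100 = no signal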
The depositor's hits bear a star; i = inactive; ? = inconclusive; nt = no result given. This is a subset; count on the stated rates, not on these rows.

SMILES	FGF22 binding	MLL AF4-AF9 inh	ALR inh	RanGTP-Imp inh	Beta apoptosis	rRNA inh HTS	rRNA inh HTS OD600	rRNA inh HTS RFP	T cruzi inh	Calb FLC
COc1ccc(-n2c(Cc3cccn3C)nnc2SCC(=O)Nc2ccc(C)cc2)cc1	i	13	30	?	-7	-3	-2	-1.3	-2	-13
Cc1ccc(NC(=O)CNC(=O)c2ccc(Br)o2)nc1	i	-17	1	-0.9	-10	2	8	-1.6	-11	0
N#Cc1ccc(NC(=O)c2sc3cc(C(F)(F)F)cnc3c2-c2cccs2)cc1	nt	nt	nt	?	7	nt	nt	nt	-1	-4
Cn1c(COc2ccccc2)nnc1SCC(=O)NNC(=O)C1CCCCC1	i	0.0	-38	-0.6	-4	-1	18	-1.3	-18	-2
COCC(C)NC(=O)c1cc(S(=O)(=O)N2CCCCC2)ccc1N1CCOCC1 (centres undefined)	i	-2.0	-1	1.6	5	10	10	-2.4	-2	-6
COc1ccc(/C=N\NC(=O)c2nn(C)cc2Cl)cc1CN1CCOCC1	nt	nt	-1	1.8	-7	nt	nt	nt	-12	-1
O=C(CSc1c2c(nc3cc(Cl)ccc13)CCCC2)NCc1ccco1	nt	nt	nt	3.3	-1	nt	nt	nt	9	15
COC(=O)c1cc(OC)c(OC)cc1NC(=O)Nc1ccccc1OC	nt	nt	-3	-0.3	-4	nt	nt	nt	0	?
COc1ccc(-n2c(=S)[nH]c3cc(C(=O)N(C)Cc4ccccc4)ccc3c2=O)cc1	i	1.3	0	3.1	4	2	1	-1.2	12	3
CS(=O)(=O)N1CCN(c2ccc(NC(=O)c3ccc(Br)o3)cc2)CC1	nt	nt	15	7.9	-8	nt	nt	nt	-11	4
COc1ccccc1OCCN1C(=O)S/C(=C\c2ccco2)C1=O	nt	nt	-7	3.2	-2	nt	nt	nt	14	-2
COc1ccc(C(CCNCc2ccccc2F)c2ccc(F)cc2)cc1 (centres undefined)	i	5.0	-9	-0.3	2	-52	-81	-27	8	-5
COc1ccc(C(=O)N2N=C(c3cccs3)CC2c2ccccc2O)cc1 (centres undefined)	i	12	1	6.0	nt	-39	-60	21	12	12
Cc1ccc(SCC(=O)Nc2ccc3c(c2)OCCO3)cc1	nt	nt	-5	-5.5	-3	nt	nt	nt	-4	-1
Cc1ccc(C(C)C)cc1S(=O)(=O)Nc1ccncc1	i	1.5	1	1.3	-7	5	4	6.0	-14	4
CN(C)S(=O)(=O)c1cccc(NC(=O)CNCC2CCCCC2)c1	i	0.8	9	3.7	-7	12	4	-3.0	2	-15
COc1ccc(O)c(C(=O)c2cnc3c(c2)c(=O)[nH]c(=O)n3C)c1	nt	nt	9	5.9	0	nt	nt	nt	-14	27
Cc1cc(=O)[nH]c2ccc(Cl)cc12	nt	nt	-1	-0.9	0	nt	nt	nt	-11	-4
COc1ccc(CCNC(=O)CNC(=O)c2ccccc2Br)cc1OC	i	-6.2	-2	-1.3	-9	5	15	-1.4	-9	-18
COc1ccccc1/C=C/C=N/n1c(-c2ccncc2)n[nH]c1=S	nt	nt	18	-2.5	-2	nt	nt	nt	0	28
COc1ccc(/C=N\NC(=O)c2ccccc2F)cc1COc1ccc(F)cc1	i	-2.1	-6	1.2	-5	5	13	-2.9	-11	20
O=C(COC(=O)CN1C(=O)NC2(CCCC2)C1=O)Nc1ccccc1C(F)(F)F	i	0.4	-4	0.4	-1	0	0	-1.8	3	-2
CCn1nc(NC(=O)c2ccco2)c2cc3ccc(C)cc3nc21	nt	nt	-7	23*	-1	nt	nt	nt	8	5
C/C=N/NC(=O)CCNC(=O)c1ccccc1	nt	nt	6	-2.8	0	nt	nt	nt	-1	5
COc1ccc(-n2nc(C(=O)NCC(=O)N3CCN(C)CC3)c3ccccc3c2=O)cc1	i	-1.9	0	0.7	-3	4	5	-0.9	-14	1
The results go on.
SMILES	FGF22 binding	MLL AF4-AF9 inh	ALR inh	RanGTP-Imp inh	Beta apoptosis	rRNA inh HTS	rRNA inh HTS OD600	rRNA inh HTS RFP	T cruzi inh	Calb FLC
CCn1cc(C(=O)NCCc2ccccc2)c(=O)c2cc(S(=O)(=O)N(C)C)ccc21	i	-0.2	3	1.4	3	7	10	0.3	17	1
C/C=C/C(=O)OCC(=O)Nc1ccc(SC(F)F)cc1	nt	-0.4	99*	?	0	-2	2	-1.5	-28	-2
COc1ccc(Cl)cc1C(=O)NNC(=O)c1nn(C)c(=O)c2ccccc12	i	-1.5	-1	nt	7	8	4	1.4	nt	nt
CCNc1nc(SCc2ccccc2)nc(N2CCOCC2)n1	nt	nt	0	-0.9	-2	nt	nt	nt	16	-7
COc1ccc(NS(=O)(=O)c2c(C)n(C)c(=O)n(C)c2=O)cc1OC	i	-15	-14	4.7	0	8	3	1.1	1	1
Cc1cnnc2c1-c1no[n+]([O-])c1CC2	nt	nt	-24	0.0	-4	nt	nt	nt	-3	-1
O=C(c1ccco1)N1CCc2[nH]nc(-c3ccc(Cl)cc3)c2C1	i	2.6	-5	3.3	-4	-29	-38	-6.8	13	2
CSCCC(NC(=O)COc1ccccc1)C(=O)N(C)CC(=O)Nc1ccc(Cl)cc1 (centres undefined)	i	2.2	-2	nt	2	-26	-30	-6.2	nt	nt
CN(Cc1nc2ccccc2n1C)C(=O)c1ccco1	i	0.7	12	-3.0	nt	-2	-1	-0.4	-6	-1
CCSc1nc2c(c(=O)[nH]c(=O)n2C)n1CC(O)COc1ccccc1 (centres undefined)	i	-0.1	-2	0.4	-2	18	12	-4.3	-8	-3
CCOc1ccc(-c2cc(C(=O)N3CCN(c4ccccn4)CC3)c3ccccc3n2)cc1	i	6.9	-19	2.5	12	8	11	-4.3	22	1
CN1CC(c2ccccc2)C2(SC(=S)N(Cc3ccco3)C2=O)C12C(=O)Nc1ccccc12 (centres undefined)	nt	nt	-4	0.9	4	nt	nt	nt	41	-7
O=[N+]([O-])c1cc(NS(=O)(=O)c2ccc(Cl)nc2)ccc1Cl	i	1.5	1	4.5	15	5	0	3.0	-3	29
Cc1ccc(OCCn2c(CCNC(=O)C(C)C)nc3ccccc32)cc1	nt	nt	-9	8.8	-2	nt	nt	nt	7	1
CCc1ccc(C2C(C(C)=O)=C(C(=O)OC)Nc3nnnn32)cc1 (centres undefined)	nt	nt	0	12	-2	nt	nt	nt	4	1
S=C(NCCCN1CCOCC1)Nc1ccc(-c2nc3ccccc3[nH]2)cc1	i	2.3	98*	3.2	1	-1	4	6.1	-8	-14
Cc1ccc(-c2nnc(N3CCN(c4ccccn4)CC3)c3ccccc23)cc1	nt	nt	-16	-4.4	26	nt	nt	nt	29	32
CCN1CCN(CC2CC3C=CC2C3)CC1 (centres undefined)	nt	nt	nt	1.6	3	nt	nt	nt	12	-5
CCC(=O)Nc1sc2c(c1C(N)=O)CCC2	nt	nt	43	1.0	-1	nt	nt	nt	3	-4
CC(C)Oc1ccc(CCC(=O)NNC(=S)Nc2ccccc2)cc1	i	3.0	14	2.6	1	-5	-3	1.0	-10	8
COc1ccc(CCN(C)C(=O)CCNS(=O)(=O)c2ccccc2C(F)(F)F)cc1OC	i	-3.8	nt	nt	-8	-3	-1	-2.4	nt	nt
COc1cccc(COc2ccc3c(C)c(Cc4ccccc4)c(=O)oc3c2)c1	nt	nt	0	7.6	4	nt	nt	nt	40	0
COc1ccc(CCNC(=O)CCOc2ccc(C(C)(C)C)cc2)cc1OC	i	0.3	-18	2.7	4	-10	-48	-5.9	2	14
COc1ccc(C2=NOC(C(=O)NCc3ccccn3)C2)cc1 (centres undefined)	nt	nt	-6	2.0	-9	nt	nt	nt	-9	15
COc1ccccc1N1CC(C(=O)NCC2COc3ccccc3O2)CC1=O (centres undefined)	i	-0.2	-1	nt	4	7	11	1.7	nt	nt
Next compounds follow.
SMILES	FGF22 binding	MLL AF4-AF9 inh	ALR inh	RanGTP-Imp inh	Beta apoptosis	rRNA inh HTS	rRNA inh HTS OD600	rRNA inh HTS RFP	T cruzi inh	Calb FLC
CCN(CC(=O)NCc1ccc(F)cc1)C(=O)CN1CCN(c2ccccc2OC)CC1	i	0.2	10	6.7	-3	2	-1	-2.3	7	-9
COc1cc(C(=O)NNC(=O)c2ccc3ccccc3n2)cc(OC)c1OC	i	1.2	1	nt	9	1	3	-1.0	nt	nt
NC(=O)C1CCN(c2nc(-c3ccc4ccccc4c3)cs2)CC1	i	nt	?	nt	0	1	6	9.6	nt	nt
O=C(NCCCCCCNC(=O)c1ccncc1)c1ccncc1	i	0.9	0	13	-8	18	12	2.9	0	-4
C(=N\N1CCN(Cc2cccc3ccccc23)CC1)/c1cccs1	i	?	6	4.6	-7	-11	-8	-2.8	12	7
COc1ccccc1C(=O)N1CCNC(=O)C1CC(=O)Nc1cccc(C)c1 (centres undefined)	i	1.7	-1	-1.0	1	11	21	2.7	-10	1
NS(=O)(=O)c1ccc(NC(=S)N2CCN(c3cccc(Cl)c3)CC2)cc1	i	-0.8	29	-1.4	7	-14	-20	-4.6	-7	-19
COc1cc([N+](=O)[O-])ccc1NC(=S)N1CCOCC1	i	0.1	-23	1.5	-1	-2	12	1.6	-1	-9
C=C(C)COc1ccc2c3c(c(=O)oc2c1OCC(=C)C)CCC3	i	-3.1	-2	6.3	9	2	4	0.2	33	10
CCOC(=O)c1ccc(CSc2nncn2N)o1	nt	nt	-10	-4.1	-1	nt	nt	nt	-2	5
CCOc1ccc(S(=O)(=O)NCCC(=O)NCC(C)(C)N2CCOCC2)cc1	i	-1.2	0	1.1	-4	8	7	-2.4	-5	-2
COc1cccc(CNc2ccc(F)c(Cl)c2)c1	nt	nt	23	-3.3	-5	nt	nt	nt	0	-2
Cc1ccccc1OCC(=O)NNC(=O)c1ccoc1C	i	0.1	0	nt	-1	-1	8	0.5	nt	nt
COc1ccc(CCN2C(=O)CC(NCc3ccc4c(c3)OCO4)C2=O)cc1OC (centres undefined)	nt	nt	25	0.5	5	nt	nt	nt	14	-21
COc1cccc(CNC(=O)CCSCc2ccccc2F)c1	i	1.4	-14	7.9	4	-29*	-12*	-2.8*	-16	-5
O=C(COC(=O)CCNS(=O)(=O)c1ccccc1)NC(=O)c1ccccc1	nt	-0.6	-5	?	-5	10	8	0.8	-7	1
CCCCc1cc(=O)oc2cc(O)cc(O)c12	i	-3.7	41	4.8	-1	-42	-63	19	-1	18
C=CCn1c(=N)n(CC(=O)OCC)c2ccccc21	nt	nt	99*	-4.1	-1	nt	nt	nt	nt	1
COc1cc(C(=O)N[C@H](C(=O)NC(C)C23CC4CC(CC(C4)C2)C3)C(C)C)cc(OC)c1OC (some centres undefined)	nt	nt	5	4.0	nt	nt	nt	nt	-4	-34
Cn1c(-c2ccccc2)c(C=O)c2ccccc21	i	-1.7	-2	-4.9	-1	-34	-47	-12	16	-34
CCOC(=O)C1CCCN(C(=S)Nc2ccc(OC)cc2)C1 (centres undefined)	i	2.0	nt	-2.4	-3	15	23	5.1	-13	-1
CCc1cc2c(-c3ccccc3)cc(=O)oc2cc1OC(C)C(=O)O (centres undefined)	i	-4.9	5	9.5	-3	-7	-3	0.4	-4	7
O=C(NC1CCCCC1)N1CCC(c2nc3ccc(Cl)cc3[nH]2)CC1	nt	nt	-7	0.5	-12	nt	nt	nt	-9	-1

Screening results as filed in PubChem.
